Source: PubChem BioAssay
Calb biofilm kill: mixture kills Candida albicans biofilm cells; C. albicans biofilm persisters + clotrimazole, fluorescence viability; primary screen in compound mixtures of four per well; inhibition, % at 7.6 µM; hit rate 0.02% among 120,000;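 active = inhibition above 30.3% in the primary screen of four-compound pools, then above 30% when the compound was retested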;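 also: compounds exposed to preformed 24 h biofilms for 48 h; the number belongs to the whole pool; some results filed as inactive read as strong as hits; inactives centre near 12; 0% = biofilm with clotrimazole alone and 100% = kill control; retested singly at about 60 µM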
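Assay system: C. albicans biofilms / Medium: RPMI/MOPS medium, pH 7.0 / Schedule: biofilm formation 24 h, compound exposure 48 h, 37 °C / Measured by: Alamar Blue fluorescence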
Numbers without * were called inactive. This is a subset (hit frequency here may not be typical).

compound	Calb biofilm kill
Cc1ccc2nc(-c3ccccc3)c(NC(=O)c3ccco3)n2c1	12.0
Nc1ccccc1-c1ccccc1N	18.0
Cc1ccc(NC(=O)CCSc2nnc(Cc3ccccc3)o2)cc1	10.9
Cc1ccc(S(=O)(=O)NCc2ccncc2)cc1C	17.2
CCOC(=O)C(=CNc1ccc(N2CCOCC2)cc1)C(=O)OCC	20.2
O=c1[nH]cnc2c1sc1nc(-c3ccccc3)c3c(c12)CCCC3	15.3
O=C(CNS(=O)(=O)c1ccc2ccccc2c1)OCc1csc(-c2ccccc2)n1	16.9
Cn1nnnc1SCC(=O)NC1CCCc2ccccc21 (centres undefined)	18.8
O=C(NCc1ccc2c(c1)OCO2)c1cc(-c2cc(Cl)ccc2O)n[nH]1	8.4
O=c1cc(-c2ccccc2)nc2c(-c3ccccc3)c(C(F)(F)F)[nH]n12	29.0
COc1ccc(C(=O)C2CCCN(C(=O)c3cccs3)C2)cc1F (centres undefined)	18.8
Nc1nc(-c2ccccc2)c(N=Nc2ccccc2Cl)s1	-3.6
CNC(=O)c1[nH]cnc1C(=O)Nc1ccccn1	8.7
COc1cc(C(=O)Nc2nnc(CC(C)C)s2)c([N+](=O)[O-])cc1OC	9.4
CC1=C(C(=O)OC(C)C)C(c2cccs2)NC(=O)N1 (centres undefined)	18.1
Cc1cc(C)c(NC(=O)CS(=O)CC(=O)Nc2ccc(F)cc2F)c(C)c1 (centres undefined)	16.4
CC(C)CCN1CCN(Cc2nc3c(s2)CCCC3)CC1CCO (centres undefined)	2.7
COc1ccc(OC)c(CNC(=O)C2CCN(S(C)(=O)=O)CC2)c1	17.9
COc1ccc(-n2c3c(cc(C(=O)NNc4ccccc4)c2=O)C(=O)CC(C)(C)C3)cc1	10.5
CCCNS(=O)(=O)c1ccc(-n2cnnn2)c(OC)c1	-1.0
COc1cccc(C2CC(c3cccc(NS(C)(=O)=O)c3)=NN2C(=O)c2ccccc2)c1OC (centres undefined)	16.5
Cc1ccc(-c2ccc(C(=O)NCc3ccccc3)o2)c2ccccc12	6.4
Cc1csc(SC(C)C(=O)Nc2ccc3c(c2)OCCO3)n1 (centres undefined)	13.0
CN1/C(=C\C(=O)C[n+]2cccc(C(N)=O)c2)C(C)(C)c2ccccc21	5.8
CCCc1[nH]n(-c2ccc(F)cc2)c(=O)c1C=NCC1CCCO1 (centres undefined)	11.2
COC(=O)c1ccccc1NC(=O)CSc1ccc(C)cc1	11.7
Cc1cc(C)n2nc(SCC(=O)c3cccs3)nc2n1	3.8
COc1cccc(CN(C)CC(=O)NCc2ccccc2Cl)c1	10.1
COC(=O)CN(c1cc([N+](=O)[O-])ccc1OC)S(C)(=O)=O	11.7
S=c1[nH]nc(COc2cccc3ccccc23)n1Cc1ccccc1	25.8
CSc1ccc(/C=C(\NC(=O)c2ccccc2)C(=O)NN)cc1	22.7
COc1cc(NC(=S)N2CCC(C(N)=O)CC2)cc(OC)c1	14.3
Cc1ccc2cc(C)c(SCC(=O)Nc3ccc(S(=O)(=O)N4CCCC4)cc3)nc2c1	8.4
O=C(NC1CCN(S(=O)(=O)c2ccccc2)CC1)C1CCCCC1	10.0
CC(C)(C)CC(=O)Nc1cc(S(=O)(=O)N2CCCCCC2)ccc1Cl	16.6
C#CC1(NC(=O)NC(=O)c2c(F)cccc2F)CCCCC1	8.3
COc1ccc(-c2cc(COc3ccccc3)on2)cc1	12.2
Cc1ncsc1CCOC(=O)C1C2CC3CC(C2)CC1C3 (centres undefined)	12.0
CCC(=O)N1N=C(c2cccc(NS(C)(=O)=O)c2)CC1c1cccs1 (centres undefined)	9.5
N#CC(C#N)=CNc1cccnc1	11.9
Brc1ccc(-c2nnc(Cc3ccccc3)o2)cc1	17.6
COc1cccc(Cn2nc(C(=O)O)c3ccccc3c2=O)c1	-6.9
Cc1c(C(=O)N2CCCC2)sc(NC(=O)c2ccccc2)c1C#N	13.7
O=C(Cn1cc(C(=O)c2ccco2)c2ccccc21)NC1CC1	9.0
COc1ccc2oc(=O)c(N3C(=O)c4ccccc4C3=O)cc2c1	27.0
COCCNC(=O)C(C(=O)c1ccc(F)cc1)n1cc(C)ccc1=O (centres undefined)	10.2
CCn1c(SCc2cccc(F)c2)nc2c(c1=O)SCC2	21.3
CCSC1=NCCN1C(=O)c1ccc(S(=O)(=O)N(CC)CC)cc1	17.0
CCOC(=O)N1CCN(C(=O)CCCCCn2c(=S)[nH]c3ccsc3c2=O)CC1	10.9
O=C1c2ccccc2NC2(CCCC2)N1NS(=O)(=O)c1ccccc1	28.8
O=C(CSc1nnc(COc2ccccc2Cl)o1)NC(=O)NCc1ccco1	30.6
O=C(CNC(c1ccccc1)c1ccccc1)Nc1ccccc1-c1ccccc1	18.4
CCOC(=O)CC1C(=O)NCCN1C(=S)Nc1ccccc1 (centres undefined)	0.7
Cc1ccc(C2NCCS2)cc1 (centres undefined)	7.7
COc1cccc(C(=O)Nc2cccc3c2ccc2cccn23)c1	-11.4
COc1ccccc1-n1c(=O)c(C#N)c(-c2ccc([N+](=O)[O-])cc2)c2cc(C(=O)c3cc(F)ccc3O)cnc21	12.6
CCCCc1n[nH]c(=S)n1Cc1ccc(Cl)cc1	13.1
O=S(=O)(c1ccc(F)c(F)c1F)N1CCN(C(=S)NCc2ccccc2)CC1	10.3
COc1ccc(C(C#N)c2ccc(=O)[nH]n2)cc1 (centres undefined)	15.8
CCOC(=O)c1ccc(NC(=O)COc2ccc(CNC3CCCCC3)cc2OC)cc1	11.9

(cont.)
Molecule | Calb biofilm kill
COc1cc2c(cc1OC)C(NC(=O)C(F)(F)F)CNC2=O (centres undefined) | -0.7
Cc1cc(NC(=O)CCCn2nc([N+](=O)[O-])cc2C)no1 | 15.8
CCCc1cc(=O)[nH]c(=S)[nH]1 | 7.8
CCC(CC)NC(=O)Nc1ccc(F)cc1F | 9.6
Cc1cc(Nc2ccc(N3CCOCC3)cc2)c2cccc(C)c2n1 | 9.1
Cc1ccc2[nH]c3c(=O)n(Cc4ccco4)cnc3c2c1 | 18.0
O=C(NN=C1CCCC1)c1ccc([N+](=O)[O-])cc1 | 28.2
Nc1cc([N+](=O)[O-])ccc1O | -11.5
CC(NC(=O)CN1CCc2ccccc21)c1ccccc1 (centres undefined) | 22.5
CC(=O)Nc1nnc(S(N)(=O)=O)s1 | 9.1
O=C(CSc1nn(-c2ccc(F)cc2)c(=S)s1)NCC1CCCO1 (centres undefined) | 1.5
O=C(COc1ccc(Cl)cc1)NCc1nnc(SCC(=O)Nc2ccccc2F)o1 | 13.2

Structural class, those above with a thiophene ring, fused or not.
Molecule | Calb biofilm kill
O=c1[nH]cnc2c1sc1nc(-c3ccccc3)c3c(c12)CCCC3 | 15.3
COc1ccc(C(=O)C2CCCN(C(=O)c3cccs3)C2)cc1F (centres undefined) | 18.8
CC1=C(C(=O)OC(C)C)C(c2cccs2)NC(=O)N1 (centres undefined) | 18.1
Cc1cc(C)n2nc(SCC(=O)c3cccs3)nc2n1 | 3.8
CCC(=O)N1N=C(c2cccc(NS(C)(=O)=O)c2)CC1c1cccs1 (centres undefined) | 9.5
Cc1c(C(=O)N2CCCC2)sc(NC(=O)c2ccccc2)c1C#N | 13.7
CCOC(=O)N1CCN(C(=O)CCCCCn2c(=S)[nH]c3ccsc3c2=O)CC1 | 10.9

(next part)
Molecule | Calb biofilm kill
CC1C(c2ccccc2)N(C)C(c2ccccc2)C(C)C1(O)C#Cc1ccccc1 (centres undefined) | 18.6
CC1CC(=O)Nc2ccccc2N1S(=O)(=O)c1cccc(Cl)c1 (centres undefined) | 3.7
COc1ccc(NC(=O)c2cncc(Br)c2)cc1S(=O)(=O)N1CCCCC1 | 14.2
COCCNC(=S)Nc1ccc2nsnc2c1 | 17.4
CN(C)c1ccc(CNCCC(Cc2ccccc2)c2ccco2)cc1 (centres undefined) | 18.8
Cc1cc2nc(CCN(C(=S)NCC3CCCO3)C3CCCC3)[nH]c2cc1C (centres undefined) | 8.8
Cc1cc(C(=O)NNC(=S)Nc2ccccc2C)cs1 | 20.4
COc1ccc(N(CC(=O)NC2CCCCC2)C(=O)CNC(=O)c2ccco2)cc1OC | -3.4
Cc1cccc(-n2c(C)cc(C=C(C#N)C#N)c2C)c1 | 21.0
COc1ccc(Oc2cccc(Cl)c2CNC(=O)CC(C)(C)CC(=O)O)cc1 | 17.7
O=C(CNCC1CCCCC1)Nc1cccc(S(=O)(=O)N2CCOCC2)c1 | 14.5
Cc1ccc(C(=O)CSc2nnc3c4ccccc4nc(C(C)(C)C)n23)cc1 | 11.7

Next part (six carried over from the part before).
Molecule | Calb biofilm kill
Cc1cc(C(=O)NNC(=S)Nc2ccccc2C)cs1 | 20.4
COc1ccc(N(CC(=O)NC2CCCCC2)C(=O)CNC(=O)c2ccco2)cc1OC | -3.4
Cc1cccc(-n2c(C)cc(C=C(C#N)C#N)c2C)c1 | 21.0
COc1ccc(Oc2cccc(Cl)c2CNC(=O)CC(C)(C)CC(=O)O)cc1 | 17.7
O=C(CNCC1CCCCC1)Nc1cccc(S(=O)(=O)N2CCOCC2)c1 | 14.5
Cc1ccc(C(=O)CSc2nnc3c4ccccc4nc(C(C)(C)C)n23)cc1 | 11.7
Cc1ccccc1NC(=S)N(C)Cc1cn(C)c2ccccc12 | 13.1
CC(=O)C1=C(C)N(Cc2ccccc2)C(=O)N[C@H]1c1ccco1 | 17.6
Cn1cc(-c2ccc(Cl)cc2)cc(C#N)c1=O | 17.1
COc1ccc(-n2c(=O)c3c4c(sc3n(CC(N)=O)c2=O)CCCCC4)cc1 | 2.4
CCSc1nnc(NC(=O)C2C3CCC(C3)C2C(=O)O)s1 (centres undefined) | 12.9
O=[N+]([O-])c1ccc(/C=N/Nc2ncc(-c3ccccc3)cn2)cc1 | 54.0
C=CCn1c(COc2ccccc2F)nnc1SCC(=O)Nc1cc(C)on1 | 5.3
Nc1nc(Nc2cccc(F)c2)nc(NCCO)c1[N+](=O)[O-] | 13.2
CC(=NC(C)C)C1=C(O)C(C)OC1=O (centres undefined) | 20.5
COc1cc(-n2c(N)c(C(=O)NCc3ccco3)c3nc4ccccc4nc32)cc(OC)c1OC | 6.4
Cc1cc2ccccc2nc1SCC(=O)NC1CCCC1 | 2.2
Cc1ccc(CN2CCN(Cc3cn[nH]c3-c3ccccc3)CC2CCO)o1 (centres undefined) | 3.5
Cc1sc2ncnc(NC(C)C(=O)O)c2c1C (centres undefined) | 3.3
COCCCNC(=O)CN(CCc1ccccc1)S(=O)(=O)c1ccccc1 | 8.1
CCOC(=O)C1=C(C)Nc2nc(C)nn2C1c1ccc(OC)c(OC)c1 (centres undefined) | -2.7
COc1ccccc1-n1c([S-])c(C(=O)Nc2ccccc2C(F)(F)F)[n+]2ccc(C(=O)NCCO)cc12 | 6.3
O=C(N/N=C/c1ccco1)C1CC1c1ccccc1 (centres undefined) | 13.9
Cc1ccc(NC(=O)NCc2ccc3[nH]c(C)cc3c2)cc1 | 12.1
CC(=O)NC(Cc1cccc(F)c1)C(=O)NC1CCN(C(=O)c2ccc(C)cc2)CC1 (centres undefined) | 12.8
CNC(=S)Nc1cccc(C(C)=O)c1 | 15.4
O=C1Nc2cc(C(=O)N3CCc4ccccc4C3)ccc2S/C1=C\c1ccccc1 | 10.0
CC(=O)OCC1=C(C(=O)O)N2C(=O)C(NC(=O)C(C)Cn3nc(C)c(Cl)c3C)C2SC1 (centres undefined) | 5.3
COc1ccc(SCCN2CCN(C)CCC2=O)cc1 | 15.2
COc1ccccc1NCCC(=O)OCC(=O)NC1CCCCC1 | 11.8
O=C(/C=C/c1ccc(F)cc1)Nc1ccc(S(=O)(=O)Nc2ncccn2)cc1 | 13.4
CC(C)CN(C(=O)CSc1nnnn1C)C1CCS(=O)(=O)C1 (centres undefined) | 3.4
O=C1CCCc2c1nc(-c1ccccc1F)n2O | 24.7
COc1ccc(C(=O)NNC(=O)C2CCCN(C3CC(=O)N(c4ccccc4)C3=O)C2)cc1 (centres undefined) | 8.8
CCCn1c(N)c(C(=O)CSc2ncc(C(F)(F)F)cc2Cl)c(=O)[nH]c1=O | 9.2
NNC(=O)c1ccc(COc2ccc3c(c2)CCC3)o1 | 14.4
O=C1C2C(C(=O)N1/N=C/c1ccc([N+](=O)[O-])o1)C1C=CC2C12CC2 (centres undefined) | 14.3
CC(C)(C)c1ccc(C2(C)NC(=O)N(CC(=O)NCc3cccs3)C2=O)cc1 (centres undefined) | 13.0
Cc1nnc(NC(=O)CCSCCC(=O)Nc2nnc(C)s2)s1 | -22.1
CCOC(=O)CN=C/C(C(C)=O)=C(/C)O | 10.6
Cc1cccc(C)c1OCC(=O)NC(Cc1c[nH]c2ccccc12)C(=O)O (centres undefined) | 24.5
Cc1nn(C(=O)c2nn(C)cc2[N+](=O)[O-])c(C)c1Cl | 15.6
CCN(CC)c1ccc(/C=N/NC(=O)c2ccco2)cc1 | 3.2
c1ccc(COc2ccc(OCCCCN3CCCC3)cc2)cc1 | 14.2
COc1ccc(C(=O)/C(=C/N(C)C)S(=O)(=O)c2ccccc2)cc1 | 20.8
CCNC(=S)N/N=C(\C)c1cc2ccccc2o1 | 16.8
CCSc1nc2ccccc2n1C(=O)Oc1ccccc1 | 12.5
CSc1ccccc1NC(=O)C1CCCO1 (centres undefined) | 15.2
COc1ccccc1C(=O)C1CCCN(C(=O)c2cn3cc(Cl)ccc3n2)C1 (centres undefined) | 14.1
CCN(CC)c1ccc(/C=N/NC(=O)CC(C)C)cc1 | 17.9
Cc1onc(-c2ccccc2)c1CNC(=O)C1COc2ccccc2O1 (centres undefined) | 19.5
CCOC(=O)/C(C#N)=C/C=C1\C=Cc2ccccc2N1CC | 2.2
Oc1[nH]c2ccccc2c1N=Nc1ccccc1F | 14.7
CC(Oc1ccc(Br)cc1)c1nc2c3ccccc3nc(=S)n2[nH]1 (centres undefined) | 5.2
CCc1ccc(OCC(=O)N/N=C/c2cc([N+](=O)[O-])ccc2N2CCOCC2)cc1 | 21.7
